NPYLR7 agonist = agonists of mosquito NPYLR7 receptor, primary screen, cell-based, Aedes aegypti, calcium fluorescence, mosquito biting behavior | HEK293T NPYLR7/Galpha15, GCaMP6s calcium fluorescence | activation, % at 10 µM | 0.15% of 270,000 active | AID 1259423, 2018; in the data active means activation above about 40%;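 further: 0% = vehicle and 100% = reference agonist at the receptor; some compounds past the cut are filed as inactive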
NPYLR7 agonist max-min = second read-out of NPYLR7 agonist, no call of its own (marks repeat the call); activation, %; measured here: Max-Min RFU normalised activation; some inactives read as strong as hits;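 span of the calcium signal over five minutes; 0% = vehicle and 100% = native peptide agonist; compound fluorescence can raise it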
* = called active by the depositor. Some of the compounds tested; count on the stated rates, not on these rows.

The line under a structure holds: NPYLR7 agonist, NPYLR7 agonist max-min
C[n+]1cn(Cc2ccc(C#N)cc2)c2ccccc21
→ 1, -1
COc1ccc(N2C(=O)C3N=NN(Cc4ccccc4)C3C2=O)cc1Cl (stereo not drawn)
→ 2, -4
CC(C)OC(=O)c1ccc(COc2ccc(C(C)(C)C)cc2)o1
→ 6, 7
Cc1csc(SCc2cc(=O)c(OC(=O)c3ccc(S(=O)(=O)N4CCCC4)cc3)co2)n1
→ -3, -6
Cc1cc(=O)c(C(=O)N(C)CC(=O)Nc2ccc(Cl)c(Cl)c2)nn1-c1ccc(Cl)cc1
→ -3, -10
Cc1cc(C)n(-c2cccc(CNC3COc4ccccc4C3)c2)n1 (stereo not drawn)
→ 3, 3
CCOCCOc1nc(-c2ccc(C)cc2)n(-c2ccc(NC(=O)Nc3ccc(OC)cc3)cc2)n1
→ 19, 16
Cc1cc(C)nc(N=Cc2c(O)c3ccccc3oc2=O)n1
→ -6, -11
CCC(C(=O)Nc1ccc(N2CCN(c3ccccc3OC)CC2)c(C(=O)N2CCCCC2)c1)c1ccccc1 (stereo not drawn)
→ 16, 12
CCOC(=O)C1(CCOc2ccccc2)CCN(C(=O)C2=CCCCC2)CC1
→ 6, 1

Structural class, the compounds so far with a Cl atom (two)
The line under a structure holds: NPYLR7 agonist, NPYLR7 agonist max-min
COc1ccc(N2C(=O)C3N=NN(Cc4ccccc4)C3C2=O)cc1Cl (stereo not drawn)
→ 2, -4
Cc1cc(=O)c(C(=O)N(C)CC(=O)Nc2ccc(Cl)c(Cl)c2)nn1-c1ccc(Cl)cc1
→ -3, -10

(cont.)
The line under a structure holds: NPYLR7 agonist, NPYLR7 agonist max-min
Cc1cccn2c(=O)c(-c3nn[nH]n3)cnc12
→ 6, -4
CCOc1ccc(OCCNC(=O)CCl)cc1
→ -11, -10
CCN(CC)c1ccc(CN(C(=O)COC)C2CC2)c(OS(=O)(=O)c2ccc(NC(C)=O)cc2)c1
→ 19, 12
O=C1c2ccccc2C(=O)c2c1c(Cl)c1ccccc1c2Cl
→ 5, 4
COCC(C)(NC(=O)c1nn(-c2ccccc2C)c2c1CCC2)C(F)(F)F (stereo not drawn)
→ -2, -5
C=CCNS(=O)(=O)c1ccc2c(c1)NC(=O)CO2
→ -2, -6
CCOc1ccccc1CN(C(=O)c1cccnc1NC)C1CC1
→ 7, 19
CC(c1ccc(F)cc1)n1ccc2c(cnc3ncnn32)c1=O (stereo not drawn)
→ -4, 0
N#Cc1c(NC(=O)CN2CCN(Cc3cc(=O)n4ccsc4n3)CC2)sc2c1CCC2
→ 3, 2
Cc1cc(OC(=O)CCc2ccccc2)c([N+](=O)[O-])c(=O)[nH]1
→ -6, -6
CCOC(=O)c1cc(-c2ccc(N3CCN(C(=O)c4cccc(C#N)c4)CC3)cc2)n(-c2ccccc2Cl)n1
→ -3, -4
COc1ccc(C(=O)N2CCN(C(C(=O)Nc3cccc(Cl)c3)C3CCCC3)CC2)cc1 (stereo not drawn)
→ -2, 4
Cc1ccc(C(=O)COc2ccccc2C(=O)Nc2ccccc2)cc1
→ -6, -6
CN(C)c1ccc(NC(=O)c2ccco2)cc1CN(CC1CCCO1)C(=O)c1ccccc1Cl (stereo not drawn)
→ 29, 28
Cc1ccc(O)c(CN(Cc2ccc(F)cc2)CC2CCCO2)n1 (stereo not drawn)
→ 0, -20
CCN(CC)CCCn1c2c(c(SCC(=O)Nc3ccc([N+](=O)[O-])cc3)nc1=O)CCC2
→ -4, 1
O=C1CN(Cc2ccccc2)C2(CCN(Cc3ccccn3)CC2)N1
→ -15, -16
O=c1ccc(-c2cccs2)nn1CCNS(=O)(=O)Cc1ccccc1
→ 5, 6
CCCCN(CC(=O)N1c2ccccc2-n2cccc2C1c1ccc(Cl)cc1)C(=O)c1ccccc1OC (stereo not drawn)
→ -2, 3
CCCC1NC(=O)N(Cc2nsc(N(C)C)n2)C1=O (stereo not drawn)
→ 6, 7
Cc1cc(Cl)ccc1N1CCN(C(=O)C2CCCC2)C(C)C1=O (stereo not drawn)
→ 1, 8
N#Cc1cccc(NC(=O)CC2CCN(Cc3ccccc3)C2)c1 (stereo not drawn)
→ 10, 8
CC(C)(CN1CCC(c2ccnc(-c3ccncc3)c2)C1)N1CCOCC1 (stereo not drawn)
→ 30, 11
COc1ccccc1N(C)C(=O)c1cc2c(s1)CCC2
→ 15, 17
Cc1ccc(CNC(=O)c2ccn(C)c(=O)c2)cc1F
→ -1, -4
Cc1cc(C)nc(N2CC(n3nc(C)cc3C)C2)n1
→ 7, 5
N#Cc1cc2c(=O)n3ccccc3nc2n(Cc2ccccn2)c1=N
→ -8, -8
COC(=O)C1C(=O)c2c([nH]c(C(=O)OC3CCCC3C)c2C)CC1C (stereo not drawn)
→ 11, 0
CCCCc1ccc(C(=O)N2CCCC2C(=O)Nc2nnc(-c3ccc(Cl)cc3)s2)cc1 (stereo not drawn)
→ 28, 32
COc1ccc2cc(C(=O)NCC3CC3)c(C)nc2c1
→ 12, 8
CCCCCCCn1c(=O)c2c(nc3n2CCN3c2ccc(F)cc2)n(C)c1=O
→ 1, 6
OC(c1ccc(CN(CCN2CCOCC2)Cc2ccccc2)o1)(c1cccs1)c1cccs1
→ -8, 15
CC(=O)N1CCC(Oc2ccc(Cl)cc2C(=O)N(C)Cc2nccs2)CC1
→ 6, 0
COC(=O)Cc1cc(=O)[nH]c(SCCCC#N)n1
→ 6, 5
CC(O)CCC(=O)NCCc1nc2ccccc2n1Cc1ccccc1 (stereo not drawn)
→ -6, -8
O=C(NCc1cccnc1)N1CCN(S(=O)(=O)c2cccc([N+](=O)[O-])c2)CC1
→ 2, -2
O=C(Cc1csc(-n2cccc2)n1)Nc1ccc(F)c(F)c1
→ -1, -2
CCC(c1ccccc1)N1CCN(CC(=O)NCCOC)CC1 (stereo not drawn)
→ 3, 1
CC(C)c1nc2cc(C(=O)NCc3csc(Cc4ccccc4)n3)ccc2o1
→ 2, 1
COc1ccc(OC)c(-c2cc(Cl)c3c(c2)CC(CNC(=O)c2c(F)ccc(F)c2F)O3)c1 (stereo not drawn)
→ 14, 0
COc1ccccc1C(=O)N(Cc1nc2cc(Cl)ccc2o1)C1CC1
→ -2, -1
CC(C)Cc1nc(CN(C)c2ncnc3c2CCN(C(=O)C2CC2)C3)no1
→ 4, 1
CNC(=O)c1nn(CCOc2ccc(C)cc2)c(=O)c2ccccc12
→ 1, 3
Cc1cccc(C(C(=O)NCC2(CN3CCOCC3)CC2)N(C)C)c1 (stereo not drawn)
→ 7, -2
COc1ccc(/C=C2\N=C(c3cccc(F)c3)OC2=O)c(OC)c1
→ -1, 2
CC(NC(=O)Nc1cccc2ccccc12)C(=O)N1CCCC1 (stereo not drawn)
→ 4, 5
Cc1ccccc1Cn1c(CCNC(=O)c2ccco2)nc2ccccc21
→ -3, -3
COCCc1noc(C2CCCN2CC(=O)N2CCCc3cc(C)ccc32)n1 (stereo not drawn)
→ 1, -2
CC(C)OCCS(=O)(=O)N(C)Cc1ccc(C#N)cc1
→ 2, 0
CCc1nc(-c2ccccc2)nc(N2CCN(C(=O)C3CCC3)CC2)c1Cc1ccccc1F
→ 8, 11

(continued)
The line under a structure holds: NPYLR7 agonist, NPYLR7 agonist max-min
CC1CN(c2cc(Oc3ccc(Cl)cc3F)ncn2)CCN1C(=O)COc1ccccc1 (stereo not drawn)
→ 7, 9
CCc1nc2ccc(C(=O)Nc3ccc(Cl)c(Cl)c3)cn2c1N(C)Cc1nccs1
→ -9, -10
O=C1NCC2(CCCN(c3nc4ccccc4s3)CC2)O1 (stereo not drawn)
→ 2, -1
O=C(Cc1ccccc1O)N1CCn2nc(C(=O)N3CCCC3)cc2C1
→ 6, 1
OCCC1CN(Cc2ccc3cc(F)ccc3n2)CCN1C1CCCCC1 (stereo not drawn)
→ 14, 1
CCN(CC)S(=O)(=O)c1cccc(C(=O)Nc2ccc(F)cc2)c1
→ -5, -8
CC(C)C(C)N(CC(=O)OCc1ccccc1)Cc1cccn1Cc1ccc(C(F)(F)F)cc1 (stereo not drawn)
→ 2, 4
CCC(Sc1ncc(S(=O)(=O)c2ccccc2)c(N)n1)C(=O)Nc1c(C)cccc1C (stereo not drawn)
→ -1, 3
CCOC(=O)CSc1nc(N)c2c3c(sc2n1)CCC3
→ 9, 6
CCCc1[nH]n(-c2ccc(Cl)c(Cl)c2)c(=O)c1C1=C([n+]2ccccc2)C(=O)N(CCC)C1=O
→ 2, 1

Retrieved one by one from the entries so far:
The line under a structure holds: NPYLR7 agonist, NPYLR7 agonist max-min
O=C1NCC2(CCCN(c3nc4ccccc4s3)CC2)O1 (stereo not drawn)
→ 2, -1
CCOC(=O)CSc1nc(N)c2c3c(sc2n1)CCC3
→ 9, 6
O=C(Cc1ccccc1O)N1CCn2nc(C(=O)N3CCCC3)cc2C1
→ 6, 1
CC1CN(c2cc(Oc3ccc(Cl)cc3F)ncn2)CCN1C(=O)COc1ccccc1 (stereo not drawn)
→ 7, 9
OCCC1CN(Cc2ccc3cc(F)ccc3n2)CCN1C1CCCCC1 (stereo not drawn)
→ 14, 1
CCC(Sc1ncc(S(=O)(=O)c2ccccc2)c(N)n1)C(=O)Nc1c(C)cccc1C (stereo not drawn)
→ -1, 3

(listing goes on)
The line under a structure holds: NPYLR7 agonist, NPYLR7 agonist max-min
Cc1ccccc1-c1ccccc1C(=O)N1CCC2(CCCO2)CC1
→ 8, 4
O=C(c1ccc(F)cc1F)N1CCc2ccccc2C1c1ccc(F)cc1 (stereo not drawn)
→ 18, 8
COc1ccc(-n2c(=O)[nH]c3c(C(N)=O)nc(-c4cccc(F)c4)nc32)cc1OC
→ 25, 8
Fc1ccc(CNc2ccn3nccc3n2)cc1
→ 3, 0
CSC(C)(C)CNC(=O)NCCCc1nc(C)cs1
→ 2, -1
CC(=O)N1CCN(c2ncccc2CNC(=O)CCCc2cccs2)CC1
→ 19, 8
CCOc1ccccc1NC(=O)CSc1ccc2nnc(-c3ccccc3)n2n1
→ 1, 32
COc1ccc2c(c1)C1(SC(C)(C)CN1C(=O)c1ccccc1F)C(=O)N2 (stereo not drawn)
→ 4, 11
Cc1ccc(F)cc1S(=O)(=O)NCc1ccnc(N2CCCC2)c1
→ 3, 3
Cc1ccc([N+](=O)[O-])cc1S(=O)(=O)Cl
→ -5, -10

Arranged by molecular weight (descending): part of the list above
The line under a structure holds: NPYLR7 agonist, NPYLR7 agonist max-min
CC(=O)N1CCN(c2ncccc2CNC(=O)CCCc2cccs2)CC1
→ 19, 8
Cc1ccc(F)cc1S(=O)(=O)NCc1ccnc(N2CCCC2)c1
→ 3, 3
Cc1ccccc1-c1ccccc1C(=O)N1CCC2(CCCO2)CC1
→ 8, 4
CSC(C)(C)CNC(=O)NCCCc1nc(C)cs1
→ 2, -1
Fc1ccc(CNc2ccn3nccc3n2)cc1
→ 3, 0

(continued)
The line under a structure holds: NPYLR7 agonist, NPYLR7 agonist max-min
N=C(N)SCc1cn2ccccc2n1
→ 5, 5
CNC1CCCN(CCCc2ccccc2)C1 (stereo not drawn)
→ 8, 4
CC(c1ccc2c(c1)OCCO2)N(C)Cc1ncccc1C(=O)O (stereo not drawn)
→ 12, 8
COc1ccc(-n2nc(C(C)C)nc2CCN2CCCCC2)cc1
→ 0, 2
Cc1nn(C)c(Cl)c1C(=O)OC(C)C(=O)Nc1sccc1C(N)=O (stereo not drawn)
→ 6, 0
CCOC(=O)c1c(-c2ccc(F)cc2)cn2c1SCC2=O
→ -1, -1
CC(C)CC(=O)Nc1sc2c(c1C(=O)OCC(=O)N(C)C)CCC2
→ 14, 14
CCCn1c(C)c(CC(=O)NCc2nccn2CC)c2c1CC(C)(C)CC2=O
→ 4, -1
COc1cc(C(=O)N2CCOC(c3ccccc3)C2)ccc1F (stereo not drawn)
→ 24, 27
C[C@H](Oc1cc(-c2cnn(C3CCNCC3)c2)cnc1N)c1c(Cl)ccc(F)c1Cl
→ 7, -1

A run of entries of the results above:
The line under a structure holds: NPYLR7 agonist, NPYLR7 agonist max-min
N=C(N)SCc1cn2ccccc2n1
→ 5, 5
CNC1CCCN(CCCc2ccccc2)C1 (stereo not drawn)
→ 8, 4
CC(c1ccc2c(c1)OCCO2)N(C)Cc1ncccc1C(=O)O (stereo not drawn)
→ 12, 8
COc1ccc(-n2nc(C(C)C)nc2CCN2CCCCC2)cc1
→ 0, 2

Other records follow:
The line under a structure holds: NPYLR7 agonist, NPYLR7 agonist max-min
Cc1ccccc1-n1ccc2nc(N3CCOCC3)ncc2c1=O
→ 10, 8
O=C(Nc1cc(Oc2ccc3c(c2)CCC3)cc([N+](=O)[O-])c1)c1cnn2c(C(F)(F)F)cc(-c3ccco3)nc12
→ 10, 14
Clc1ccccc1Cn1cccc1CNC1CC1
→ 15, 13
Cc1ccccc1CN1CCC(CN(Cc2cccnc2)C(=O)c2cnn(C(C)C)c2)CC1
→ 2, 3
CCC(C(=O)Nc1cc(-c2ccc(Cl)cc2)nn1-c1cc(Cl)ccc1Cl)c1ccccc1 (stereo not drawn)
→ 23, 20

Bioassay records from PubChem BioAssay.
